Mtb bLac sens: beta-lactam sensitization of Mtb H37Rv; M. tuberculosis H37Rv growth with meropenem, percent inhibition; hits of this screen are not shown here; inhibition, % at 25 µM; 330,000 compounds, 0.27% hits; AID 434955;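 active = about 74% or more and at least 40 points above the plate without the antibiotic, then above 30% in a dose series; inconclusive = first-round hits that could not be retested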;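 note: growth measured after seven days incubation then overnight dye step; 0% = bacteria only wells and 100% = bacteria with antibiotic; twin plates without the antibiotic show which effects depend on it; some results filed as inactive read as strong as hits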
YopH inh: blocks Yersinia enterocolitica YopH tyrosine phosphatase; fluorescence Ex485/Em525; inhibition, %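 (about 10 µM by stock and volumes)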; 140,000 compounds, 0.16% hits; AID 898;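 active = inhibition of 50% or more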;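 note: controls were vehicle for no effect and minimum signal wells for full effect; inactives centre near -20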
Mtb growth: M. tuberculosis H37Rv growth inhibitors, H37Rv strain (AID 1626); 220,000 compounds, 0.95% hits; M. tuberculosis H37Rv growth inhibition; higher % means a stronger effect; inhibition, % at 10 µM; hits with a dose series show IC50 in µM;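 active = confirmed in a dose series; inconclusive = inhibition above 80% but not taken into the dose series; inactive = below 80% or under 30% at every dose of the series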;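 note: bacteria incubated seven days before Alamar blue readout; 0% = bacteria only wells and 100% = bacteria with antibiotic wells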
Arbovirus anti: antivirals against arbovirus infection; AID 1251; 200,000 compounds, 0.37% hits; inhibition, % at 10 µM; arbovirus infection cell-based antiviral screen;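 active = inhibition from about 30%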;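 note: bluetongue infection of BSR cells; cell survival read as ATP light after 72 h; 0% = infected wells without compound and 100% = uninfected wells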
RecA intein inh: blocks M. tuberculosis RecA intein splicing; P9WHJ3; cell-free RecA intein splicing, fluorescence; inhibition, %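 (about 9 µM by stock and volumes)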; 290,000 compounds, 0.75% hits; AID 2221; in the data active = inhibition above about 30%; inconclusive = no clear call, values can overlap the other calls;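 note: 0% = vehicle wells and 100% = reference inhibitor control wells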
Target sequence (P9WHJ3 whole entry, looked up): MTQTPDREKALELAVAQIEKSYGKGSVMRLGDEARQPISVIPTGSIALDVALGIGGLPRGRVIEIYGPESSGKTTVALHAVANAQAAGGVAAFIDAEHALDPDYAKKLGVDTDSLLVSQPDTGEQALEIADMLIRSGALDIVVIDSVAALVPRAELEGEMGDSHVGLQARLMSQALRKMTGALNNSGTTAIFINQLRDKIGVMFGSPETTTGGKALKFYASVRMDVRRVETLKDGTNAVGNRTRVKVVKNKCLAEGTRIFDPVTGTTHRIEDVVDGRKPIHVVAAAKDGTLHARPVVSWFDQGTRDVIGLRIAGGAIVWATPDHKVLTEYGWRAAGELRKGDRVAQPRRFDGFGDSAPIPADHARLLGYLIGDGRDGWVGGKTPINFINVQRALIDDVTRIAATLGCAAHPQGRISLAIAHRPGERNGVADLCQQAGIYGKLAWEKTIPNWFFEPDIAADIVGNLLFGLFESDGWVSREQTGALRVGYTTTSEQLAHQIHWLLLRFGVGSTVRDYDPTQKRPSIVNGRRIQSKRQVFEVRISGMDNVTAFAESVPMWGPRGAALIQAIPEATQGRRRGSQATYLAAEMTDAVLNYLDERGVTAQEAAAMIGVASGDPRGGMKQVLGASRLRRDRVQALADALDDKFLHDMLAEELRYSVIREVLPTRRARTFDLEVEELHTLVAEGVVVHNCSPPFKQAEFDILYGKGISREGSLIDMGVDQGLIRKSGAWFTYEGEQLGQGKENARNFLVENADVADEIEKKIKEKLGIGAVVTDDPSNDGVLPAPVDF
Arbovirus anti repeat: second read-out of Arbovirus anti, no call of its own (marks repeat the call); inhibition, %; measured here: 10K subset replicate screen; many hits read low in the repeat;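 first of two repeat runs on a subset; 0% = infected and 100% = uninfected wells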
Numbers without * were called inactive; ? = inconclusive; nt = not tested or not shown. This is a subset, so the mix of outcomes need not match the whole.

SMILES	Mtb bLac sens	YopH inh	Mtb growth	Arbovirus anti	RecA intein inh	others
CCn1cc(CN2CCC(C(=O)Nc3cccc(-c4cccc(F)c4)c3)CC2)cn1	1	nt	nt	nt	2.6
O=C(Cn1c(COc2ccccc2)nc2ccccc21)Nc1cc(Cl)c(Cl)cc1Cl	-5	nt	4%	-2	nt
O=C(C1=NN[C@@H]2C(=O)N(c3cccc(C(F)(F)F)c3)C(=O)[C@H]12)C(c1ccccc1)c1ccccc1	4	-6	-2%	25	11
CCOC(=O)C(Cc1ccccc1)NC(=O)CCc1nnc2ccc(N3CCCCC3)nn12 (stereo not drawn)	28	nt	nt	nt	1.9
CC(NC(=O)c1cc2c(s1)CCCC2)C(C)(C)C (stereo not drawn)	72	-16	8%	2	nt
Cn1cc(C=C2C(=O)NC(=O)NC2=O)c2ccccc21	-6	nt	nt	nt	0.1
O=C(Cc1ccccc1[N+](=O)[O-])OCC(=O)N1CCN(c2ccccc2)CC1	3	nt	nt	nt	-4.7
Cc1ccc(NS(=O)(=O)c2ccc(OCC(=O)NCc3ccco3)cc2)cc1	6	-29	5%	5	1.7
CCOC(=O)C1CCCN(C(=O)c2cc3cc(Br)ccc3oc2=O)C1 (stereo not drawn)	2	nt	-3%	6	-0.1
CC1CN2C(c3ccc(Cl)cc3)=CSC2=N1 (stereo not drawn)	-4	nt	nt	nt	-5.1

3 structures from above, ordered by count of non-hydrogen atoms, lowest first:
SMILES	Mtb bLac sens	YopH inh	Mtb growth	Arbovirus anti	RecA intein inh	others
Cn1cc(C=C2C(=O)NC(=O)NC2=O)c2ccccc21	-6	nt	nt	nt	0.1
CCOC(=O)C1CCCN(C(=O)c2cc3cc(Br)ccc3oc2=O)C1 (stereo not drawn)	2	nt	-3%	6	-0.1
CCOC(=O)C(Cc1ccccc1)NC(=O)CCc1nnc2ccc(N3CCCCC3)nn12 (stereo not drawn)	28	nt	nt	nt	1.9

Next records
SMILES	Mtb bLac sens	YopH inh	Mtb growth	Arbovirus anti	RecA intein inh	others
Cc1cc(C)nc(Nc2ncc(O)n2-c2ccccc2)n1	4	-4	-2%	-2	-0.8
COCC(=O)NNC(=O)c1ccccc1OC	10	nt	-4%	2	-1.3
COc1ccc(CCN2CC(C(=O)NCc3cccc4[nH]ccc34)CCC2=O)cc1 (stereo not drawn)	-7	nt	nt	nt	2.5
Cc1cc(=O)oc2c1c(C)nn2-c1nn[nH]n1	-5	29	-3%	-2	18
CCc1cccc(NC(=O)CCc2nc3sc4c(c3c(=O)[nH]2)CCCC4)c1	-10	nt	nt	nt	-5.7
CCOc1ccc(CSC(=N)N)cc1[N+](=O)[O-]	-6	-37	nt	-13	-0.2
COC(=O)c1ccc(Cn2nnc3c(=O)[nH]c(C4CCN(S(=O)(=O)c5cc(C)ccc5C)CC4)nc32)cc1	93	nt	nt	nt	5.0
O=c1[nH]c(-c2ccccc2)c(-c2ccccc2)nc1[N+](=O)[O-]	-4	nt	nt	nt	0.6
CCOC(=O)CSc1snnc1-c1ccccc1	98	9	-8%	8	2.3
CCOC(=O)N1CCN(C(=O)CSc2nc3c([nH]c4ccccc43)c(=O)n2CCOC)CC1	-8	nt	nt	nt	0.7
CCOCC(=O)NC1CCSC1=O (stereo not drawn)	4	-54	-2%	26	0.9
CCOC(=O)CCCN1CC(O)=C(c2nc(-c3ccc(Cl)cc3)cs2)C1=N	9	nt	2%	-8	-0.6
Cc1sc(NC(=O)CCl)c(C(=O)c2ccccc2)c1C	97	-11	56%	-30	63*
COc1ccc(NC(=O)c2cc(=O)[nH]c3ccccc23)cc1	-5	nt	nt	nt	-0.7
CCN(c1cccc(C)c1)S(=O)(=O)c1ccc2c(c1)NC(=O)CS2	3	nt	nt	nt	5.0
CC(=O)c1cccc(NC(=O)CCCOc2ccc(C)cc2)c1	58	-45	0%	-4	2.4
N#CCCn1cc(C(CC(=O)c2ccc(Br)cc2)C(=O)O)c2ccccc21 (stereo not drawn)	-1	nt	-2%	6	-1.6	Arbovirus anti repeat=1
Cc1cc(O)c(C(=O)/C=C/c2ccc(Cl)cc2)c(=O)o1	99	nt	nt	nt	1.6
CC(C)N1CCc2c(sc(NC(=O)c3cc(-c4cccs4)nc4ccccc34)c2C(N)=O)C1	nt	-12	42%	-34	-8.9
Cc1cc(NC(=O)C2Oc3ccccc3OC2C)no1 (stereo not drawn)	-5	nt	-1%	2	1.6

A run of entries taken from the entries so far:
SMILES	Mtb bLac sens	YopH inh	Mtb growth	Arbovirus anti	RecA intein inh	others
CC(C)N1CCc2c(sc(NC(=O)c3cc(-c4cccs4)nc4ccccc34)c2C(N)=O)C1	nt	-12	42%	-34	-8.9
Cc1cc(NC(=O)C2Oc3ccccc3OC2C)no1 (stereo not drawn)	-5	nt	-1%	2	1.6

4 compounds picked at random from those above:
SMILES	Mtb bLac sens	YopH inh	Mtb growth	Arbovirus anti	RecA intein inh	others
N#CCCn1cc(C(CC(=O)c2ccc(Br)cc2)C(=O)O)c2ccccc21 (stereo not drawn)	-1	nt	-2%	6	-1.6	Arbovirus anti repeat=1
Cc1sc(NC(=O)CCl)c(C(=O)c2ccccc2)c1C	97	-11	56%	-30	63*
Cc1cc(O)c(C(=O)/C=C/c2ccc(Cl)cc2)c(=O)o1	99	nt	nt	nt	1.6
CCOC(=O)CCCN1CC(O)=C(c2nc(-c3ccc(Cl)cc3)cs2)C1=N	9	nt	2%	-8	-0.6

(further entries)
SMILES	Mtb bLac sens	YopH inh	Mtb growth	Arbovirus anti	RecA intein inh	others
CCOc1ccc2nc(N3CCCC(C(=O)NCCCN4CCOCC4)C3)sc2c1 (stereo not drawn)	-1	-22	2%	3	-4.0	Arbovirus anti repeat=-1
CC(Cc1cccs1)NC(=O)Nc1cccc(Cl)c1 (stereo not drawn)	-2	-6	nt	-3	5.4
COc1ccc(/C=N/N2CCN(C3c4ccccc4-c4ccccc43)CC2)cc1OC	2	-11	-1%	18	1.6
Cc1ccc(S(=O)(=O)NCC(=O)OCC(=O)N2N=C(c3ccc(Cl)cc3)CC2c2ccco2)cc1C (stereo not drawn)	-3	-44	9%	-2	-1.7
CCN(CC)C(=O)CN(C#N)c1nc(NC(C)C)nc(NC(C)C)n1	-25	-58	-2%	1	-1.7
CC(SCC(=O)Nc1ccc(S(=O)(=O)N2CCCCC2)cc1)C(=O)O (stereo not drawn)	-30	-32	-14%	2	0.0
OC(CSc1ccccc1Cl)CN1CCN(c2ccccc2F)CC1 (stereo not drawn)	47	-43	18%	8	5.9
Cc1ccc(Nc2nc(-c3ccc(S(=O)(=O)N4CCOCC4)cc3)cs2)cc1Cl	5	-36	7%	-35	-1.9
NNC(=O)c1c[nH]c2ccc(OCc3ccccc3)cc12	0	nt	nt	nt	3.3
CC(C)CN(C(=O)CN(C)C(=O)Cc1ccc(Cl)cc1)c1c(N)n(CC(C)C)c(=O)[nH]c1=O	-13	nt	nt	nt	2.0
COc1cc(C)c(CNc2cc(C)cc(C)c2)cc1C	20	-10	-3%	13	4.7
COC(=O)c1sc(=S)sc1C(=O)OC	-2	-10	2%	3	-25
Cc1ccc(/C(O)=C/C(=O)C(=O)NC23CC4CC(CC(C4)C2)C3)cc1	6	nt	-10%	nt	1.3
N#CC1=C(N)Oc2ccc3ccccc3c2C1c1cccnc1 (stereo not drawn)	nt	nt	3%	-16	3.7
Cc1cc(NC(=O)Cc2ccccc2)nc2c1c(=O)oc1ccccc12	0	-36	4%	-27	-0.9
Cc1[nH]c2ccccc2c1CCNC(=O)c1ccc2c(c1[N+](=O)[O-])C(=O)c1ccccc1C2=O	96	-18	nt	-10	84*
CSCCC(CO)NC(=O)OCc1ccccc1 (stereo not drawn)	-3	29	-3%	-6	0.6
O=C1Nc2ccccc2C12OCCS2 (stereo not drawn)	-14	nt	-3%	-1	0.2
Nc1nc(N)c2[nH]cnc2n1	-3	nt	-6%	nt	-0.6
Nc1ccnn1Cc1cccs1	?	-15	8%	7	-1.4
Cc1cc(NC(C)C)n2c(nc3ccccc32)c1C#N	-7	nt	-4%	16	-41
C=CCn1nnnc1-c1cccc(Cl)c1	-8	nt	2%	-1	1.6
Cc1ccc(NC(=O)CCS(=O)(=O)c2ccccc2)cc1S(=O)(=O)N1CCOCC1	-2	nt	2%	2	-1.0
Cc1cc(C)n2c(SCc3nnc(-c4cccs4)o3)nnc2n1	-4	nt	1%	0	-2.4
CC12CCC(=O)N1C(C(=O)Nc1ccccc1N1CCOCC1)CS2 (stereo not drawn)	?	nt	nt	nt	2.2
Cc1oc(-c2ccccc2F)nc1CS(=O)(=O)CC(=O)NCc1ccccc1Cl	4	nt	nt	nt	0.1
CC(C)(c1ccc(O)cc1)c1ccc(O)cc1	2	nt	nt	nt	3.0
COc1ccc(S(=O)(=O)N2CCC(C(=O)NCCC(=O)Nc3nccs3)CC2)cc1	-1	nt	nt	nt	1.1
Cn1nc(-c2ccccc2)c2ncc(C(F)(F)F)cc21	-10	nt	-2%	1	1.0
O=C(NC(=O)c1ccc(C(F)(F)F)cc1)Nc1ccc(-c2cnco2)cc1	95	nt	50µM*	nt	-3.9
COc1nc(NC23CC4CC(CC(C4)C2)C3)nc(OC)n1	7	-36	8%	13	3.2
COc1ccc(N2CCN(C(=O)C(OC(C)=O)c3ccccc3)CC2)cc1 (stereo not drawn)	-9	39	-4%	5	10
c1ccc2c(c1)oc1c(N3CCOCC3)ncnc12	4	-29	-3%	9	-9.0
Cc1ccc[n+](Cc2ccc([N+](=O)[O-])cc2)c1	1	nt	-11%	2	-1.1
CC(C)[C@H](NC(=O)NCCc1ccc(Cl)cc1)C(=O)O	-13	7	-8%	0	0.3
CCc1cc2c(=O)c(-c3nc4ccccc4n3C)c(CCCC(=O)O)oc2cc1OC(=O)C(C)(C)C	-4	nt	-8%	15	3.6
COc1ccc(N2CCN(C(=O)c3oc4c(c3C)C(=O)CCC4)CC2)cc1	10	nt	nt	nt	-1.0
O=C(Nc1ccc(NC(=O)c2cc([N+](=O)[O-])ccc2N2CCOCC2)cc1)c1cccs1	-7	nt	-3%	-1	2.6
O=C(Nc1nnc(C2CCCO2)s1)c1ccc(Br)cc1 (stereo not drawn)	-5	-2	-7%	1	nt
Cn1cc(Cl)c(C(=O)OCC(=O)Nc2ccccc2)n1	0	-35	1%	5	-4.3

The last three compounds of the section before are carried over, then new ones follow:
SMILES	Mtb bLac sens	YopH inh	Mtb growth	Arbovirus anti	RecA intein inh	others
O=C(Nc1ccc(NC(=O)c2cc([N+](=O)[O-])ccc2N2CCOCC2)cc1)c1cccs1	-7	nt	-3%	-1	2.6
O=C(Nc1nnc(C2CCCO2)s1)c1ccc(Br)cc1 (stereo not drawn)	-5	-2	-7%	1	nt
Cn1cc(Cl)c(C(=O)OCC(=O)Nc2ccccc2)n1	0	-35	1%	5	-4.3
CC(=O)Oc1ccc(/C=c2\sc3ncnn3c2=O)cc1	0	-29	4%	0	0.9
Nc1c2c(nc3ccccc13)N(c1ccccc1)CC2	1	nt	3%	0	-4.0
COc1ccc2cc(OC)c(C(=O)N3CCOCC3)cc2c1	0	nt	0%	13	-6.5
Cc1c(O)ccc2c(CN3CCN(C/C=C/c4ccccc4)CC3)cc(=O)oc12	97	nt	62%	nt	-23
CCN(CC)C(=O)c1ccc(N)cc1	-1	nt	5%	6	-4.8
Cc1cc(OCc2nn[nH]n2)c2c3c(c(=O)oc2c1)CCC3	-2	-3	0%	9	10
CCC1CCc2sc(C(=O)OCC(=O)N(CCOC)c3c(N)n(Cc4ccccc4)c(=O)[nH]c3=O)cc2C1 (stereo not drawn)	-5	nt	nt	nt	-1.3
Cc1c(C(=O)C(=O)N2c3ccccc3CC2C)c2ccccc2n1C (stereo not drawn)	-9	nt	7%	-9	0.0
Cc1ccc(OCC(=O)N2CCN(C3CCC(c4ccccc4)CC3)CC2)cc1 (stereo not drawn)	4	nt	-5%	-12	2.5
Cc1cccc(NC(=O)c2ccc3c(c2)OCCO3)c1C	36	nt	nt	nt	0.2
CC(=O)c1c(C)n(CCCOC(C)C)c2ccc(O)cc12	-2	-5	1%	0	0.6
c1ccc(Nc2nc(N3CCOCC3)nc(N3CCOCC3)n2)cc1	1	-55	0%	16	-0.8	Arbovirus anti repeat=-5
CCOC(=O)c1c(C)[nH]c(C)c1S(=O)(=O)Nc1ccc(CN2CCCCC2)cc1	0	nt	nt	nt	0.4
CCc1cccc(CC)c1NC(=O)CSc1nc2ccc(N3C(=O)C4C(C3=O)[C@H]3C=C[C@@H]4C3)cc2s1 (stereo partly drawn)	?	-17	-1%	2	2.5
CCCn1c(N)c(N2CCCCC2)c(=O)n(CC(=O)Nc2ccccc2)c1=O	1	4	-8%	-5	-1.8
O=C(Nc1ccc(Br)cc1)c1ccc(F)c(S(=O)(=O)N2CCN(c3ccccn3)CC2)c1	4	nt	-13%	-6	-0.2
Cn1c(SCC(=O)Nc2nc3ccccc3s2)nnc1-c1ccccc1	15	-6	nt	-2	nt
COc1cccc(CNC(=O)c2cc3c(C)nc4ccccc4c3o2)c1	-2	-17	20%	5	3.8
